Kir21 block = inhibitors of mouse Kir2.1 inward-rectifier potassium channel; P35561; HEK293-Kir2.1, FluxOR thallium flux fluorescence; stronger effect = lower value; B-score at 10 µM; actives 0.85% (n = 310,000); AID 1672;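 active means fluorescence ratio B-score at or below minus 3 SD of library scores, with starting-brightness B-score within 2 SD, cut at about -4.2 in these data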;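 further: channel flux triggered by added potassium and thallium sulfate stimulus; B-score of peak minus minimum fluorescence over baseline after thallium stimulus; more negative B-score means stronger Kir2.1 block with less thallium influx; some compounds called inactive have numbers as strong as hits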
Target sequence (P35561 whole entry, looked up): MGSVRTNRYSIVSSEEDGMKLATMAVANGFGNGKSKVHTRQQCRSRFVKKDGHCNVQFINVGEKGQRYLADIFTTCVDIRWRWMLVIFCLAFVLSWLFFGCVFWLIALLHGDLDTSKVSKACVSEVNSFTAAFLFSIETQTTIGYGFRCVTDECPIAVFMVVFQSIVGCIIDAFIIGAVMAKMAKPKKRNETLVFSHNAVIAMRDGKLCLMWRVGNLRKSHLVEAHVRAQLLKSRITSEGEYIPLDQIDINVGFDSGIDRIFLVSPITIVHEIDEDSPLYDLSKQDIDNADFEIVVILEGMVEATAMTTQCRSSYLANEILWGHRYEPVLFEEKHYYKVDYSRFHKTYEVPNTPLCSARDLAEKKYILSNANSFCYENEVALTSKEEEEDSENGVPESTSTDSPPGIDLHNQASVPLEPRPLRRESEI
Active calls of the source: *. A portion of the library, and most or all hits are left out here.

A first look (2 entries):
item	SMILES	Kir21 block
1	CC(=O)N1CCN(C(=O)c2cc(S(=O)(=O)N3CCCCC3)ccc2Cl)CC1	0.54
2	COc1ccccc1OCc1nc(C#N)c(NCCCn2ccnc2)o1	-0.03

All compounds of this part, repeating the preview:
item	SMILES	Kir21 block
1	CC(=O)N1CCN(C(=O)c2cc(S(=O)(=O)N3CCCCC3)ccc2Cl)CC1	0.54
2	COc1ccccc1OCc1nc(C#N)c(NCCCn2ccnc2)o1	-0.03
3	Cn1nc(C(F)(F)F)c(C#N)c1N1CCN(c2ccccn2)CC1	-0.1
4	CCn1cc(C(=O)NCc2ccco2)c2cc(OC)c(OC)cc2c1=O	-0.2
5	COc1cc(CNc2ncn[nH]2)cc(Br)c1OC	-1.1
6	O=C(NCc1nnc(SCC(=O)N2CCN(c3ccccc3)CC2)o1)c1ccco1	1.7
7	COc1cc(OC)cc(C(=O)NCCOC23CC4CC(CC(C4)C2)C3)c1	-0.69
8	CCCCN1C(N)=NC[C@@H]1Cc1ccc(O)cc1	-1.1
9	CN(Cc1ccccc1)c1nc2c(c(=O)[nH]c(=O)n2C)n1CCCc1ccccc1	-2.1
10	CCOC(=O)Cn1c(=NC(=O)C2CC2)sc2c(C)cc(C)cc21	-0.89
11	COc1ccc(-c2cc(C(=O)O)no2)cc1	1.5
12	Cn1nc(C(F)(F)F)c(-c2ccc(F)cc2)c1NC(=O)c1ccco1	-0.93
13	COc1ccc(-c2noc(CNC(=O)c3ccoc3C)n2)cc1OC	-0.55
14	CCCCOc1ccc(C(=O)N/C(=C/C=C/c2ccccc2)C(=O)NCCO)cc1	0.53
15	O=C(COc1ccc(Cl)cc1)NNC(=O)c1cccnc1	-0.28
16	Oc1cc(O)c2c(c1)O[C@H](c1ccc(O)c(O)c1)[C@@H](O)C2	0.91
17	O=C(CCc1nc2ccccc2s1)c1ccccc1	-1.5
18	COC(=O)CSc1nnc(CNC(=O)c2ccccc2F)n1-c1ccccc1	-0.28
19	CCOC(=O)C1CCCN(CC(O)COC(c2ccccc2)c2ccccc2)C1 (stereo not drawn)	-0.51
20	O=C(NCc1ccccc1)c1c(F)c(F)c(F)c(F)c1F	0.17
21	Cc1cc(S(=O)(=O)N2CCOCC2)ccc1OCC(=O)Nc1ccc(F)c(Cl)c1	1.2
22	CCOC(=O)c1ccc(C(=O)NNC(=O)C2C3C=CC(C3)C2C(=O)O)cc1 (stereo not drawn)	0.77
23	COc1ccc(CNc2nc(NCc3ccc(OC)c(OC)c3)n(C(=O)c3cccs3)n2)cc1OC	0.4
24	O=C1CC(c2ccco2)CC(O)=C1C=NCC1CCNCC1 (stereo not drawn)	-0.53
25	CC1=C(C(=O)OCc2ccccc2)C(c2ccc(C#N)cc2)NC(=O)N1CCCC(=O)O (stereo not drawn)	1.1
26	O=C(C(c1ccccc1)c1ccccc1)N1CCOCC1	0.37
27	N#Cc1cccc(NC(=O)CSc2sc3c(O)cc(=O)[nH]c3c2C#N)c1	1.3
28	O=C1C2C3CCCC3=C3CCCC3C2C(=O)N1c1cccc(Cl)c1 (stereo not drawn)	1
29	Cc1ccc(-c2nnn(CC(=O)N(c3ccccc3)C(C(=O)NC3CCCC3)c3ccncc3)n2)o1 (stereo not drawn)	0.93
30	O=C(Cc1ccc(F)cc1)Nc1nnc(SCC(=O)N2CCCCC2)s1	1.3
31	CCOC(=O)C1(Cc2cccc(OC)c2)CCN(Cc2ccc(OC)c(OC)c2)CC1	-3.1
32	COc1ccc(S(=O)(=O)NN(C)C)cc1N(C)S(=O)(=O)c1ccc(Cl)cc1	0.85
33	COc1ccc(OC)c(NC(=O)CSc2nnc3ccc(-c4ccncc4)nn23)c1	0.29
34	CCOc1ccccc1N(C(=O)CNC(=O)c1ccco1)C(C(=O)NC1CCCC1)c1cccnc1 (stereo not drawn)	0.62
35	CCn1cc(C(=O)O)c(=O)c2cnc(N3CCN(C(=S)Nc4ccc(F)cc4)CC3)nc21	0.09
36	C=CCNc1nc(Cl)nc(Nc2ccccc2)n1	0.38
37	COCCn1nnnc1CN1C2CCCC1CC(NC(C)=O)C2 (stereo not drawn)	-3.3
38	O=C(Nc1nccs1)c1sc2cc(Cl)ccc2c1Cl	-1.7
39	S=C(NCCc1ccccc1)N/N=C/C1CCCCC1	-0.27
40	CCc1ccc(NC(=O)CSc2nnc(C3CC3)n2CC2CCCO2)cc1 (stereo not drawn)	0.8
41	CCOc1ccc(C(=O)NCCc2cnc[nH]2)cc1	0.58
42	CCCCn1c(N)c(N(CCOC)C(=O)C(C)Oc2ccc(Cl)cc2)c(=O)[nH]c1=O (stereo not drawn)	0.1
43	Cc1cnc(C(=O)OCC(=O)Nc2ccc(Oc3ccccc3)cc2)cn1	-0.06
44	O=C(NC(=O)c1ccccc1)NC1(C(F)(F)F)OCCO1	-0.35
45	CCOc1ccc(/C=N/NC(=O)CC(=O)NCc2ccccc2)cc1	-0.04
46	C[C@]12C(=O)N(c3ccc(C(F)(F)F)cc3)C(=O)N1[C@@H]1c3ccccc3OC[C@@H]1[C@H]2c1ccccc1	-0.71
47	O=C(COC(=O)c1ccc(S(=O)(=O)NCc2ccco2)cc1)NCCC1=CCCCC1	1.2
48	O=C(N[C@@H](Cc1ccccc1)C(=O)N1CCC2(CC1)NCCc1[nH]cnc12)c1cccc(Br)c1	-0.17
49	COC(=O)c1ccc(/C=C/C(=O)O)cc1	0.01
50	CCCCN(C(=S)NC(=O)c1ccccc1)c1c(N)n(Cc2ccccc2)c(=O)[nH]c1=O	-0.13
51	O=C(Nc1ccccc1C(=O)NCc1ccco1)NC1CCCCC1	-1.2
52	COc1cc(/C=N/NC(=S)NCc2ccco2)cc(OC)c1OC	-1.4
53	COc1ccc(C)cc1NC(=O)CN1C(=O)COc2ccc(S(=O)(=O)N3CCCCC3)cc21	-0.21
54	CCN(CC)C(=O)Oc1ccc2c(=O)c(-c3ccc(OC)cc3)coc2c1	-0.04
55	COc1ccc(N2CC(C(=O)Nc3nnc(SCc4ccccn4)s3)CC2=O)cc1 (stereo not drawn)	0.59
56	COc1ccc(CN(CC(=O)NCc2ccc(F)cc2)C(=O)c2csnn2)cc1	-2.4
57	COc1cc2[nH]c(=O)n(CCC(=O)N3CCN(c4cccc(C)c4C)CC3)c(=O)c2cc1OC	0.35
58	Cc1cccc(C)c1NC(=O)COC(=O)CSc1nnc(N)s1	-0.55
59	Cn1c(CNS(=O)(=O)c2ccc(Br)cc2)n[nH]c1=S	1.3
60	CCOc1ccc(OCC)c(NC(=O)CSc2nnnn2CC)c1	2.5

Remaining list, next part
item	SMILES	Kir21 block
61	CCOCCCNC(=S)N(Cc1ccccc1)Cc1nc2ccccc2c(=O)[nH]1	-0.07
62	CCOc1ccc(N2C(=O)CSC23CCCCC3)cc1	1.2
63	CCC(=O)NCCNc1ccc([N+](=O)[O-])cn1	0.02
64	Cc1ccc(CNC(=O)Cn2cnc(S(=O)(=O)N3CCCCC3)c2)o1	-0.87
65	Nc1c(C(=O)Nc2ccc3c(c2)OCCO3)nnn1Cc1ccc(F)cc1	-0.03
66	COC(=O)[C@H]1C[C@H]1[C@@H](NC(=O)c1ccc[nH]1)c1ccccc1	-1.1
67	COC(=O)c1ccc(NC(=O)CCn2cccc2)cc1	-2.4
68	O=C(OCCN1C(=O)c2cccc3c(N4CCOCC4)ccc(c23)C1=O)c1cccc(Cl)c1	0.01
69	O=c1c2[nH]c3ccc(F)cc3c2ncn1Cc1ccncc1	-0.71
70	COc1ccccc1Cn1c(C)nnc1-c1cnn(C)c1N	-0.58
71	CCC1C(=O)c2ccccc2N(C)C1=O (stereo not drawn)	-0.56
72	Cc1cc(C)c(C#N)c(SCCN2CCCCC2)n1	-0.1
73	COc1ccc(C(CC(=O)c2ccccc2)S(=O)(=O)c2ccc(C)cc2)cc1 (stereo not drawn)	-1.8
74	Cc1cn(COC/C=C/c2ccccc2)c(=O)[nH]c1=O	1.4
75	COc1ccc(CCN(Cc2ccccn2)C(=S)Nc2ccccc2F)cc1OC	-0.13
76	O=C(Nc1ccc(N2CCN(C(=O)c3cccs3)CC2)cc1)c1cccnc1Cl	-1.7
77	Cc1noc(COc2ccccc2OCc2onc(C)c2Cl)c1Cl	-1.7
78	O=S(=O)(c1ccc(N2CCN(S(=O)(=O)c3ccc4c(c3)OCCO4)CC2)nc1)N1CCCC1	-1
79	COc1ccc(C(=O)CSc2nc3cccnc3n2C)cc1	0.81
80	CS(=O)(=O)N(CC(=O)Nc1ccccc1C(=O)NCc1ccco1)c1ccc2c(c1)OCCO2	-0.51
81	COc1cccc(C(=O)Nc2c3c(nc4c2CCC4)CCCC3)c1	0.11
82	COC(=O)N/N=C(\C)c1ccccc1Br	-1.2
83	Cc1ccc(S(=O)(=O)N2CCCC2C(=O)NCc2ccco2)cc1 (stereo not drawn)	1.7
84	CC(=O)c1ccc(-c2nc3ccccc3n2C)o1	1.6
85	CC(=O)Nc1ccc(OCC(=O)N2CCC(Cc3ccccc3)CC2)cc1	0.08
86	CCOC(=O)C1CCN(Cc2ccc(F)cc2F)CC1	0.17
87	CSCCC(NC(=O)c1ccccc1Br)C(=O)N1CCCCCCC1 (stereo not drawn)	-0.58
88	O=C(CNC(c1ccccc1)c1ccccc1)Nc1ccccc1F	0.26
89	COc1ccc(CCN2CC(C(=O)O)CC2=O)cc1 (stereo not drawn)	0.12
90	COc1ccc(F)cc1S(=O)(=O)N1CCCCC1	1
91	CCc1ccc(S(=O)(=O)Nc2ccc(-c3nc4cccnc4s3)cc2)s1	-1.4
92	O=C(/C=C/c1ccc(Cl)cc1Cl)Nc1ccc(CN2CCOCC2)cc1	0.88
93	COc1ccc(C(CC(=O)N2CCCCC2)c2c(OC)cc(OC)c3ccc(=O)oc23)cc1 (stereo not drawn)	-1.2
94	CN(C)S(=O)(=O)c1cccc(NC(=O)COC(=O)CCC(=O)c2ccc(F)cc2)c1	-0.69
95	CC1(C)O[C@@H]1COc1c2ccoc2cc2oc(=O)ccc12	1.9
96	Cc1ccc(C)c(N(C(=O)CNC(=O)c2ccco2)C(C(=O)NC2CCCC2)c2ccncc2)c1 (stereo not drawn)	0.9
97	COc1ccc(Nc2nc(NCCN3CCOCC3)nc(Nc3ccc(OC)cc3)n2)cc1	2
98	O=C1CC(NS(=O)(=O)c2ccccc2)CN1c1ccc2c(c1)OCCO2 (stereo not drawn)	-0.56
99	COc1cccc(CN2CCN(CC#Cc3ccccc3)CC2CCO)c1 (stereo not drawn)	0.56
100	CCOc1ccccc1NC(=O)C(=O)NCC1CCCN1CC (stereo not drawn)	-0.54
101	COc1ccc(C2CC(c3ccccc3)Nc3nc(NS(C)(=O)=O)nn32)cc1 (stereo not drawn)	-0.85
102	CC(=O)NCCC(=O)N1CCCC(N(C)CCc2ccccc2)C1 (stereo not drawn)	0.08
103	COc1ccc(/C=C/C(=O)N2CCOCC2)cc1OC	1.1
104	CCc1nnc(NC(=O)c2ccc3c(c2)C(=O)N(CC)C3=O)s1	1.1
105	COc1cccc(-c2nc(CS(=O)(=O)CC(=O)NCCc3ccccc3)c(C)o2)c1	0.05
106	COc1cccc(CN2CC(C(=O)NCCCCc3ccccn3)CCC2=O)c1 (stereo not drawn)	-0.99
107	CCOC(=O)N1CCN(c2cc3[nH]c(=S)[nH]c3cc2F)CC1	2.1
108	CSc1cccc(NC(=O)c2cnn3ccccc23)c1	0.4
109	CCOC(=O)C1CCCN(C(=O)C2CCCN(S(C)(=O)=O)C2)C1 (stereo not drawn)	2.2
110	COc1ccccc1CNc1n[nH]c(NCc2ccccc2OC)n1	-0.3
111	COc1ccc(-n2c(Cc3cccn3C)nnc2SCC(=O)Nc2ccc(Cl)cc2)cc1	0.57
112	CCOC(=O)c1ccc(S(=O)(=O)N2CCN(CCC#N)CC2)cc1	0.81
113	Cc1ccc(NC(=O)Nc2ccc3c(c2)N(C)C(=O)CS3)cc1C	0
114	CCCNC(=O)Cn1c(=O)oc2cc(S(=O)(=O)N3CC(C)CC(C)C3)ccc21 (stereo not drawn)	0.54
115	Cc1c(NC(=O)c2cnn3cccnc23)c(=O)n(-c2ccccc2)n1C	0.65
116	COc1ccccc1-c1c(C(F)(F)F)oc2cc(OC(=O)c3ccc([N+](=O)[O-])cc3)ccc2c1=O	0.1
117	C/C(=N\O)C(=O)NCCCNCCCN(C)C	0.22
118	CCOc1cccc2cc(C(=O)NC(C)c3ccccc3)c(=N)oc12 (stereo not drawn)	-0.45
119	COC(=O)C1CCCN1C(=O)C1CCCN1C(=O)CNC(=O)OCc1ccccc1 (stereo not drawn)	2.1
120	Cc1ccc(Cn2c(=O)n(C)c(=O)c3sccc32)cc1	0.2

A draw from above in order of SMILES length, rising.
item	SMILES	Kir21 block
117	C/C(=N\O)C(=O)NCCCNCCCN(C)C	0.22
108	CSc1cccc(NC(=O)c2cnn3ccccc23)c1	0.4
110	COc1ccccc1CNc1n[nH]c(NCc2ccccc2OC)n1	-0.3
113	Cc1ccc(NC(=O)Nc2ccc3c(c2)N(C)C(=O)CS3)cc1C	0
106	COc1cccc(CN2CC(C(=O)NCCCCc3ccccn3)CCC2=O)c1 (stereo not drawn)	-0.99
114	CCCNC(=O)Cn1c(=O)oc2cc(S(=O)(=O)N3CC(C)CC(C)C3)ccc21 (stereo not drawn)	0.54

Additional entries.
item	SMILES	Kir21 block
121	CC(=O)Nc1cc(C(F)(F)F)ccc1N1CCOCC1	0.36
122	CC(C)(C)c1cc(NC(=O)COC(=O)c2ccc(O)cc2O)n(-c2ccccc2)n1	1.8
123	CC(C)(C)C1CCC(OC(=O)C[N+]2(C)CCCC2)CC1 (stereo not drawn)	-0.3
124	CSCCC(NC(=O)COc1ccccc1)C(=O)OCC(=O)c1cc2ccccc2o1 (stereo not drawn)	-0.11
125	CC(=O)C1=C(O)C(=O)N(c2ccc(Br)cn2)C1c1cccc([N+](=O)[O-])c1 (stereo not drawn)	-0.01
126	COCCN(C(=O)COC(=O)CCC(=O)c1ccc(C)cc1)c1c(N)n(Cc2ccccc2)c(=O)[nH]c1=O	-2.3
127	O=C(NCc1ccc(Cl)cc1)C1CCCO1 (stereo not drawn)	-0.13
